Compound activity as filed in PubChem BioAssay.
Vif TR-FRET = inhibitors of Vif binding to APOBEC3G peptide, primary screen, biochemical, TR-FRET, GST-Vif 1-94, biotin-A3G peptide, dose response retest (AID 1117319). one-dose inhibition, %; IC50 in µM for titrated hits. Virion infectivity factor (Human immunodeficiency virus type 1 group M subtype B (isolate …. 260,000 compounds, 0.57% hits. TR-FRET GST-Vif / biotin-A3G peptide binding; higher % means a stronger effect; test concentration not given here; strong numbers were not always called active;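 active = above the screen mean plus three standard deviations and confirmed in dose response; inconclusive = results disagree or hit not tested in dose response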;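 also: Vif residues 1-94 fused to GST binding biotinylated APOBEC3G peptide 110-148; 0% = full assay without inhibitor and 100% = GST in place of GST-Vif; retest series ran down from 100 µM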
MLL AF4-AF9 inh = inhibitors of AF4 peptide binding to AF9, primary screen, biochemical, AlphaScreen, biotin-AF4 peptide, FLAG-AF9, single point; inhibition, % at 10 µM; 350,000 compounds, 0.47% hits;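 active = every replicate reaching a set inhibition limit, whatever the replicate mean, cut at about 25% in these data; inconclusive = mean inhibition reaches that limit but some replicates miss it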;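 also: 0% = plate neutral control median and 100% = total signal loss; the record names both 10 and 1 µM as test concentration; the first replicate is given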
Bfl-1 A1 inh = caspase 3/7 activation in MEF A1-2A-BIM cells, primary screen, A1 inhibitor project, cell-based, luminescence, HTS | Caspase-Glo 3/7 luminescence, 3 h; percent of clofoctol response, vehicle zero | caspase activation, % (concentration not given with the values) | 330,000 compounds, 0.066% hits | AID 2462, 2010;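 active = over half of replicate activation scores above 10%, or exactly half above 10 with the replicate mean above 10; inconclusive = replicate mean below 10 yet half the replicates above 10; inactive = over half of replicates below 10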;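 also: wells of about 30 µL received 50 nL stock; many hits fall short of the cut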
Beta cell apopt = inhibitors of cytokine-induced beta cell apoptosis, primary screen, luminescence; INS-1E cytokine-induced death, ATP luminescence, 48 h; percent of positive-control rescue, neutral wells zero; protection from apoptosis, % (no concentration beside the values); 300,000 compounds, 0.8% hits;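 active = all replicates at 75% or more, or half of them and the mean; inconclusive = half reach 75% but not the mean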;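 also: 0% = cytokine-treated negative control wells and 100% = positive control rescue; higher means more ATP so stronger rescue from cytokine killing; wells of about 40 µL received 100 nL stock; the first replicate is given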
T cruzi repl = inhibitors of intracellular T. cruzi growth, primary screen, luminescence, NIH3T3 host cells | 300,000 compounds, 1.4% hits | AID 1885, 2009 | T. cruzi beta-gal in NIH3T3, 90 h | inhibition, % (concentration not given with the values);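 active = mean inhibition across valid replicates above about 55%, limit read from the data; inconclusive = mean below that limit but half or more replicates reach it; inactive = mean below it, under half of replicates reach it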;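 also: signal also drops with host cell toxicity which is not excluded here; 0% = plate median of DMSO wells and 100% = zero luminescence signal; higher percent means less beta-gal luminescence so fewer parasites; stock transfer was 50 nL into about 50 µL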
RanGTP-Imp inh = inhibitors of RanGTP-importin-beta interaction, primary screen, biochemical, FRET, CFP-Ran, YFP-importin-beta, homogeneous; cell-free CFP-Ran/YFP-importin-beta FRET ratio; inhibition, % (concentration not given with the values); AID 2216, 2009; Ran GTPase (GTP-bound) - importin-beta complex; 300,000 compounds, 1.1% hits;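 active = most replicates above 15%; inconclusive = exactly half above 15%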;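 also: 0% = DMSO wells and 100% = Ran loaded with GDP instead of GTP; wells of about 40 µL received 100 nL stock; the first replicate is given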
Calb FLC = C. albicans growth inhibition with fluconazole, primary screen, CaCi-2 strain, Alamar Blue fluorescence; 300,000 compounds, 0.57% hits; C. albicans CaCi-2 (fluconazole-resistant clinical isolate) + fluconazole, 48 h; growth inhibition, % (no concentration beside the values);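 active = most replicates above 75%; inconclusive = exactly half above 75%; inactive = most below 75%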;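 also: all wells also contain fluconazole at 8 µg/ml as a sub-toxic cotreatment; 0% = median of DMSO wells and 100% = median of geldanamycin control wells; wells of about 8 µL received 7.5 nL stock; the first replicate is given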
LANA-H2B inh = blockers of LANA interaction with H2A/H2B – biochemical, FP readout, HTS, primary screen. Protein LANA1 (Human herpesvirus 8 type P (isolate GK18)), Q9QR71. cell-free LANA-H2A/H2B peptide, fluorescence polarization. inhibition, % (no concentration beside the values). 320,000 compounds, 0.6% hits; in the data active = inhibition mostly above about 10%, no sharp cut-off; inactive = mostly below about 6.7%;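 also: stock transfer was 7.5 nL into about 10 µL; 0% = median of vehicle wells and 100% = median of positive control wells; one replicate is shown; the record names a cut of 25% in any replicate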
Target sequence (Q9QR71 whole entry, looked up): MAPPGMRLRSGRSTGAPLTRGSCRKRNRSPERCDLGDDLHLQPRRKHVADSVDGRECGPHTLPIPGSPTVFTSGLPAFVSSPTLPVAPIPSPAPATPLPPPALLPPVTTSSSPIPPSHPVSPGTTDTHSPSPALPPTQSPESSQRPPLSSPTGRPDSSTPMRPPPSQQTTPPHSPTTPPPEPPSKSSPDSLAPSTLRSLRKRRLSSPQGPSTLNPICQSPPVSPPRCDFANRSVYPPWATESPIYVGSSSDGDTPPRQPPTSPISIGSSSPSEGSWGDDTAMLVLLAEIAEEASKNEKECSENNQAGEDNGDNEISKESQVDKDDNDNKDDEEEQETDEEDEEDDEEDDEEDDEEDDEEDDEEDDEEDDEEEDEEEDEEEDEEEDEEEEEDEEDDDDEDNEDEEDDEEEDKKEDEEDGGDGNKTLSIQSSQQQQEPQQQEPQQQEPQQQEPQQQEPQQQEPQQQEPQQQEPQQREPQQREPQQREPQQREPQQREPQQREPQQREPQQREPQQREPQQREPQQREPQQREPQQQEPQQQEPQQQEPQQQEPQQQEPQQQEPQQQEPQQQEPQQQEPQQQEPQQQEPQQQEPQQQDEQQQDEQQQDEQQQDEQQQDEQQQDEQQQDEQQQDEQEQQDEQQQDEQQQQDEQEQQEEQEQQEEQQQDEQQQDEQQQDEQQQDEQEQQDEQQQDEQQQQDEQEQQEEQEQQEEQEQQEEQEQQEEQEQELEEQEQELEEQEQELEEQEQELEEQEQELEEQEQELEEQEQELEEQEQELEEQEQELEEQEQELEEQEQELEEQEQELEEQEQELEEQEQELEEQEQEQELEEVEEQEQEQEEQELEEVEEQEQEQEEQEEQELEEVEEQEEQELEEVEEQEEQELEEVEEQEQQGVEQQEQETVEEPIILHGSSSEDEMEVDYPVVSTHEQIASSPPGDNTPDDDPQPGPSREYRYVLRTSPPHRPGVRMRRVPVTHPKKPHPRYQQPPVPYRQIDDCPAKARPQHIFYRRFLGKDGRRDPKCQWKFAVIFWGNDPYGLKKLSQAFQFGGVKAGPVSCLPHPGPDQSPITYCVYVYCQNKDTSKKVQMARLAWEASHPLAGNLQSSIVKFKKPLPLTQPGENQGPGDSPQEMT
* = called active by the depositor; ? = inconclusive; nt = not tested or not shown; & = joins results of further samples.

SMILES	Vif TR-FRET	MLL AF4-AF9 inh	Bfl-1 A1 inh	Beta cell apopt	T cruzi repl	RanGTP-Imp inh	Calb FLC	LANA-H2B inh
Oc1ccc(C(=S)N2CCN(Cc3ccccc3)CC2)cc1	-33%	2.4	0.3	3	-5	3.0	3	1.0
COc1ccc(CCNC(=O)c2ccc(Cl)nc2)cc1	nt	3.7	-0.7	-7	-2	3.3	-15	7.0
Nc1cccc(N2C(=O)c3cccc4c(N)ccc(c34)C2=O)c1	nt	0.7	-1.7	-4	-14	-228	nt	26*
COc1ccc(OC)c(C2=C[N+](=O)C(C)(C)C(C)(C)N2[O-])c1	-1%	nt	0.3	-6	1	4.7	0	-1.0
COc1ccc(-c2cc3ccc(O)cc3oc2=O)cc1	-3%	-2.7	-14	0	-12	128*	-3	0.8
O=c1[nH]c2ccc(N/C(=N/S(=O)(=O)c3ccccc3)c3ccccc3)cc2[nH]1	?	nt	0.3	0	-6	3.3	12	-11
CCOc1nc(Nc2ccc(F)cc2)nc(N2CCN(c3ccc(OC)cc3)CC2)n1	2%	nt	1.6	19	41	0.4	-3	-2.1
O=c1[nH]c(N2CCN(Cc3ccc4c(c3)OCO4)CC2)nc2c1CCCC2	?	-6.3	-0.8	5	1	?	-8	0.9
Cc1ccc(Cn2ccc(NC(=O)c3cc(-c4ccc(F)cc4)on3)n2)cc1	16%	nt	0.6	-5	-8	3.6	-10	3.1
O=C(CN1CCN(c2ccccc2)CC1)Nc1ccc(Oc2ccccc2)cc1	6%	nt	-0.6	nt	14	-1.1	14	-0.7
CN1CCc2nc(SCC(=O)Nc3ccc(Cl)cc3)c(C#N)cc2C1	?	nt	0.4	nt	13	0.9	51	1.8
CCNc1nc(Oc2ccc(=O)n(-c3ccccc3)n2)nc(N2CCOCC2)n1	-4%	nt	-1.2	0	-2	?	-6	-2.7
O=C(NC(Cc1c[nH]c2ccccc12)C(=O)Nc1ccc(OC(F)(F)F)cc1)c1cccs1 (stereo not given)	nt	2.2	0.6	1	47	-1.3	-2	-3.0
NC(=O)COC(=O)CCCSc1nc2ccccc2s1	15%	9.8	-0.5	-2	1	-1.0	-15	-0.4
CN(Cc1ccco1)C(=O)c1c[nH]c2ccc(S(=O)(=O)Nc3ccc4c(c3)OCCO4)cc2c1=O	11%	-6.8	-1.1	0	-17	1.7	4	0.2
Cc1cc(NC(=O)c2cccc(S(=O)(=O)N3CCC(C)CC3)c2)no1	nt	-2.5	-0.3	-4	5	3.2	1	-3.4
Oc1ccc(NCc2cccs2)cc1	nt	4.6	0.2	0	-6	-0.1	1	-0.6
CCCCNC(=O)CSc1nc(O)c(Cc2ccc(OC)cc2)c(=O)[nH]1	-3%	7.5	-0.5	-6	-3	6.6	7	-2.7
O=C(c1ccc(Cl)c(S(=O)(=O)N2CCCCC2)c1)N1CCCC(C(F)(F)F)C1 (stereo not given)	0%	-0.9	-0.6	-9	nt	nt	nt	5.8
Cc1ccc(-c2nnn(CC(=O)N(Cc3ccccc3)C(C(=O)NC3CCCC3)c3ccncc3)n2)o1 (stereo not given)	3%&-1%	12	nt	nt	11	-0.3	-7	nt
CCOC(=O)Cc1csc(NC(=O)Cn2c(=O)oc3ccccc32)n1	-9%	-0.3	0.7	0	-12	0.5	-3	1.8
C=CCc1cccc(Cl)c1OCCCNC1CCCC1	-1%	-5.1	-0.7	0	42	1.6	-6	1.8
C=CCN1c2ccccc2[C@]23C[C@@H](C(=O)OC)N(C(=O)OCC)C2=NC(C(=O)OC)=C(C(=O)OC)[C@H]13	nt	0.5	1.1	-1	-1	0.5	-5	-0.4
CC12CN3CC(C)(CN(C1)C3c1ccc3ccccc3c1O)C2=O (stereo not given)	3%	nt	-0.2	-3	1	5.3	nt	1.0
Cn1cnnc1SCC(=O)NNC(=O)c1ccc(Cl)cc1	nt	2.5	0.1	2	-5	5.4	3	-3.8
CCCSc1nc2sc3c(c2c(=O)[nH]1)CCN(Cc1ccccc1)C3	4%	nt	0.4	2	11	-16	14	-2.7
COc1ccc(/C=N/NC(=O)C(=O)NCC2CCCO2)cc1 (stereo not given)	-7%	12	-0.4	0	4	-0.9	-16	2.4
COc1ccc(NC2CCCN(C(=O)c3ccc(C)c(N4CCNC4=O)c3)C2)cc1 (stereo not given)	6%	3.0	-0.1	nt	-6	4.3	-9	-8.3
COc1ccc(C)cc1NC(=O)NNC(=O)C1CCC(C(C)(C)C)CC1 (stereo not given)	-8%	-0.5	-0.7	0	20	-1.0	-11	-1.1
Cc1ccc(S(=O)(=O)NCc2ccccc2)cc1C(=O)NC1CCC(C)CC1 (stereo not given)	nt	-2.2	0.1	-6	-13	-4.1	-5	3.5
CCCCS(=O)c1c(O)c2ccccc2[nH]c1=O (stereo not given)	-4%	0.1	0.0	-2	1	?	23	7.9
Cn1c(C(=O)N2CCCC(C(=O)NCCc3ccccc3)C2)cc2sccc21 (stereo not given)	5%	nt	-0.5	-3	-14	-0.7	-1	5.4
COc1ccccc1-c1nc(-c2ccc(Br)o2)no1	13%	0.4	-8.5	nt	8	4.5	-6	-2.1
CCN(CC)Cc1ccccc1CNC(=O)c1cccc(S(=O)(=O)Nc2ccc3c(c2)OCO3)c1	-3%	8.5	0.1	2	nt	nt	nt	2.3
O=C(/C=C/c1ccco1)Nc1cccnc1	1%	2.1	-6.3	0	-12	7.5	-7	-2.6
Cc1nnc(SC(C)C)n(N)c1=O	2%	-1.2	1.1	-6	-19	-3.6	2	0.5
COC(=O)CCC(=O)OC1(C)C(=O)C2=CN(CCCCO)C(c3ccc(OC)cc3)=CC2=C(Br)C1=O (stereo not given)	nt	nt	-0.7	-4	-3	-0.1	21	-0.6
CC(Sc1nc2sccc2c(=O)n1-c1ccccc1)C(N)=O (stereo not given)	nt	-1.8	-0.1	-4	0	0.1	-3	1.7
CCCC(=O)OCCNC(=O)c1cc2ccccc2oc1=O	8%	nt	0.3	-6	-13	0.1	1	4.1
CCCCC1C2C(=O)N(c3ccccc3)C(=O)C2ON1c1ccccc1 (stereo not given)	-8%	3.5	0.2	3	10	-1.9	13	-6.2
COc1cccc(C2(CSc3nnc(-c4cc(OC)c(OC)c(OC)c4)o3)OCCO2)c1	17%	nt	0.7	4	0	0.4	4	-2.8
Cc1ccccc1C(=O)NCCCCc1ccccc1	2%	nt	0.6	-4	-17	-2.0	-18	0.5
CC(C)N=C(NC#N)SCc1ccc(Br)cc1	8%	nt	-0.7	-5	16	-1.4	-11	-0.9
Cc1ccc(-n2nc3c(c2NC(=O)c2cccs2)CS(=O)(=O)C3)c(C)c1	11%	-2.3	0.2	-3	-16	2.7	27	-7.7
COC(=O)c1c(C)cc(O)cc1O	nt	-2.1	-1.2	-6	-20	1.8	2	-0.1
CN(C)c1nnnn1-c1ccc(Cl)cc1Cl	nt	-3.5	0.9	0	-22	0.3	-9	-0.8
O=C(NCC1CCCO1)c1cccnc1NCc1ccc(F)cc1 (stereo not given)	nt	-2.1	-0.2	-6	-6	-2.3	-18	1.9
COc1ccc(Nc2nc(C)cc(C)c2C#N)cc1	33%	nt	-0.4	-3	19	5.5	1	0.5
O=c1onc(-c2ccccc2)c2ccccc12	nt	0.2	0.5	2	0	3.4	2	9.0
O=C(NC(CC(=O)N1CCCC(C(F)(F)F)C1)c1ccccc1)c1ccccc1Cl (stereo not given)	nt	3.1	0.4	-2	13	-2.5	?	-0.8

Continuation.
SMILES	Vif TR-FRET	MLL AF4-AF9 inh	Bfl-1 A1 inh	Beta cell apopt	T cruzi repl	RanGTP-Imp inh	Calb FLC	LANA-H2B inh
CCn1c(SCc2ccccc2Cl)nc2nc3c(cc2c1=O)CCCC3	5%	-0.3	nt	nt	42	2.3	-7	nt
O=C1Nc2ccccc2/C1=N\N1CCOCC1	nt	-0.4	0.0	3	-13	3.8	3	-1.1
CCCN(C(=O)c1ccc2c(SCC(=O)O)c3c(nc2c1)CCC3)c1cccc(C)c1	19%	-0.2	1.4	-3	-22	2.6	2	7.8
O=c1[nH]nc(-c2ccc(OCc3ccc(Cl)cc3Cl)cc2)o1	0%	-1.6	0.3	-2	-21	-2.6	5	0.9
Cc1ccc(CSCC(=O)Nc2ccc(F)cc2)cc1	9%	-3.1	-0.3	-10	-2	?	-1	4.6
CCn1c(SCC(=O)c2ccccc2)nnc1-c1cc2cc(Br)ccc2o1	?	nt	?	11	28	3.3	1	2.0
CC(=O)NC(Cc1c[nH]c2ccccc12)C(=O)OCC(=O)Nc1ccc2c(c1)OCO2 (stereo not given)	?	nt	0.0	-4	8	1.4	-6	-1.1
CC(O)[C@H]1CC[C@H]2[C@@H]3CC[C@H]4C[C@@H](O)CC[C@]4(C)[C@H]3/C(=N/O)C[C@]12C (stereo not given in full)	nt	-0.5	0.3	-1	-10	-0.2	9	-0.1
COc1ccc(N(C(C)C(=O)N2CCC(Cc3ccccc3)CC2)S(C)(=O)=O)cc1 (stereo not given)	6%	-4.1	-0.5	40	33	1.0	-3	2.6
CCOc1ccc(NS(=O)(=O)c2ccc(SC)cc2)cc1	14%	nt	0.2	-2	8	-2.1	4	-2.7
Cn1cc(Br)c(C(=O)Nc2nccs2)n1	1%	nt	-1.5	0	-4	-0.1	5	-4.8
Cc1ccc(SCc2cc(=O)[nH]c(N3CCN(Cc4ccc5c(c4)OCO5)CC3)n2)cc1	17%	nt	-0.2	-5	1	2.4	-1	2.4
COc1ccc(N(C)S(=O)(=O)c2ccc3c(c2)CCN3C(=O)C2CC2)c(OC)c1	nt	-0.1	1.2	1	42	9.8	-3	6.6
CC(=O)c1ccc(-n2nnnc2SCC(=O)NNC(=O)c2ccco2)cc1	-1%	-3.8	-0.9	3	-23	5.1	-4	-0.4
Cc1c(NC(=O)N2CCCCCC2)c(=O)n(-c2ccccc2)n1C	2%	nt	0.7	-3	-18	5.5	3	-3.0
CCn1c(C)nc2cc(C(=O)N/N=C/c3ccc(N4CCOCC4)cc3)ccc21	-5%	0.5	-0.1	8	-6	-4.3	-3	2.6
C=CCn1c(SCC(=O)N(C)C2CCS(=O)(=O)C2)nc2ccccc2c1=O (stereo not given)	?	-3.2	1.1	-3	7	-4.8	14	1.9
CC1CC(C)CN(C(=O)CSc2nnc(CSc3ncccn3)n2C)C1 (stereo not given)	-3%	nt	-0.6	1	-6	-3.5	-26	3.3
Cc1cc(C)c(NC(=O)c2cc3c(nc4sccn43)s2)c(C)c1	15%	nt	-0.3	8	-12	0.9	-10	-0.6
COCCC(=O)N1CCC(Oc2ccc(C(=O)N3CCC(N(C)C)C3)cc2)CC1 (stereo not given)	nt	-1.1	-0.4	-7	-14	-0.7	1	-0.7

This is a random part of the collection (roughly 4.3% active in at least one column).
